# eIF4H inh = inhibitors of RNA binding by human eIF4H. Q15056. eIF4H fluorescence polarization binding assay. inhibition, % at 35 µM. 0.94% of 290,000 active. AID 2012;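 active = 50% or more with normal probe brightness, or confirmed in later tests; inconclusive = above 50% with abnormal brightness, or retests that disagree; inactive = below 50% or failed in later tests; about a fifth of its hits are not listed in these tables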;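 note: calls also rest on retests at 20 µM and on dose response follow-up; 0% = protein and probe with vehicle and 100% = probe without protein; strong numbers were not always called active; many hits fall short of the cut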
# UUG fidelity = alters start codon recognition fidelity in yeast | S. cerevisiae UUG-firefly luciferase reporter, luminescence/redox ratio | 0.13% of 350,000 active | activity score, % at 18.7 µM;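 active = replicate mean at a twofold rise or more, about +100% in these data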;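 note: firefly luciferase made from a UUG start codon reports start codon fidelity; reporter light over untreated wells divided by growth signal over untreated wells; some hits fall short of that in this replicate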
# PABP polyA inh = blocks human PABP binding to poly(A) RNA | P11940 | fluorescence polarization | inhibition, % at 35 µM | 1% of 290,000 active;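 active = 50% or more with normal probe brightness, or confirmed in later tests; inconclusive = above 50% with abnormal brightness, or retests that disagree; inactive = below 50% or failed in later tests; about a fifth of its hits are not listed in these tables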;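 note: calls also rest on retests at 20 µM and on dose response follow-up; controls were probe without protein and protein plus probe with vehicle; some compounds called inactive have numbers as strong as hits; many hits fall short of the cut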
# Target sequence (P11940 whole entry, looked up): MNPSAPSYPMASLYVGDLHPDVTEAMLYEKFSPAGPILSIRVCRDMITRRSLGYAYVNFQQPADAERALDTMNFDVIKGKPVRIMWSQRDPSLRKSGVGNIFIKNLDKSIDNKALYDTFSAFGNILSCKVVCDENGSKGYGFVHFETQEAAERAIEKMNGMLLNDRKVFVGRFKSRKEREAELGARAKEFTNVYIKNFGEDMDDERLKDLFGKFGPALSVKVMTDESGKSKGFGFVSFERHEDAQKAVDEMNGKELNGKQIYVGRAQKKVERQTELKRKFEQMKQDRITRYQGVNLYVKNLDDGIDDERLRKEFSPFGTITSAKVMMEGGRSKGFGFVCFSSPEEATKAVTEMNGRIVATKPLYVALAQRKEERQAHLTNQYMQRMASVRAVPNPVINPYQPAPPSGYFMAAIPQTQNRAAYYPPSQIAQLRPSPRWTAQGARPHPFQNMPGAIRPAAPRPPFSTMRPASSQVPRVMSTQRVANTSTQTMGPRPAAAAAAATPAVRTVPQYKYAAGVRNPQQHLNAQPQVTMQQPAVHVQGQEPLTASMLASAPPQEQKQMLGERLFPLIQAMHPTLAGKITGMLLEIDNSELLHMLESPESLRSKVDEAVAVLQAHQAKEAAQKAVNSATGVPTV
# CSC inhib = cancer stem cell inhibition; cancer stem cell-like cells viability, luminescence; inhibition, % at 7.5 µM; 1.1% of 300,000 active; AID 2717;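 active = mean at 75% or more and at least half the replicates too; inconclusive = mean and replicates disagree; tested in HMLE shEcad cells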;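 note: 0% = median of negative and 100% = median of positive control wells; the first replicate is given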
# MT1-MMP act inh = MT1-MMP (human) activation inhibition | P50281 | HT1080 RFP-PRO-GFP cells, GFP/RFP ratio fluorescence, overnight; percent of plate control window, DMSO zero | GFP/RFP ratio change, % at 20 µM | 0.061% of 360,000 active | AID 651647;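 active = GFP/RFP ratio change of at least 30% with cell ATP level not reduced by more than half and red fluorescence within 50% of control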; note: strong numbers were not always called active
#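 Test system: HT1080 RFP-PRO-GFP cells; Benchmarks: DMSO and RFP-L50D-GFP cell wells; Timing: cells overnight before dosing, compound overnight, 37 °C, 5% CO2; Compound: one 20 µM compound dose with 1% DMSO; Read-out: GFP/RFP fluorescence ratio.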
# Rce1 inhib = inhibitors of yeast Ras-converting enzyme. Q03530. calls only. AID 2563. yeast membranes, quenched prenylated peptide cleavage fluorescence. 0.27% of 290,000 active;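 active = fall in fluorescence gain of 50% or more versus controls, with final raw signal at or below 3038400; inconclusive = same 50% fall but final raw signal above 3038400; inactive = fall in fluorescence gain under 50%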;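 note: plate controls were neutral control wells for no effect and wells lacking membranes for full effect; tested at 10 µM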
# Env fusion inh = blocks HIV Env-driven cell-cell fusion. HeLa-JRFL Env/CEM21 cell fusion, luciferase. inhibition, % at 12.3 µM. 1.1% of 360,000 active. AID 651610;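 active = mean replicate inhibition score of at least 50 and every replicate individually at or above 50; inconclusive = only one of the two criteria met; inactive = mean below 50 and not all replicates reaching 50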;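 note: 0% = plate neutral controls and 100% = maraviroc near 300 nM; one replicate is shown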
# eIF4H inh retest = second read-out of eIF4H inh, no call of its own (marks repeat the call); inhibition, %; compound at 20 µM; confirmation average;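 mean of two retest wells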
# PABP polyA inh retest = recorded beside PABP polyA inh, whose call it bears; inhibition, %; compound at 20 µM; confirmation repeats;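 mean of two retest wells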
# MT1-MMP act inh RFP = recorded beside MT1-MMP act inh, whose call it bears; RFP signal change, %; measured here: RFP expression control read;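 0 = vehicle wells; hits needed this value within 50% of zero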
# An asterisk follows results filed as active; i = inactive; ? = inconclusive; nt = no result given; & = joins results of further samples; [ ] = remark or other dose. The list is partial, so the mix of outcomes need not match the whole.
SMILES,eIF4H inh,UUG fidelity,PABP polyA inh,CSC inhib,MT1-MMP act inh,MT1-MMP act inh RFP,Rce1 inhib,Env fusion inh,others
CCCN(CCC)C(=O)Cn1c(=O)n(CCCCC(=O)NC2CCCC2)c(=O)c2ccccc21,6,-23,4,-4,-3,2,i,nt,
COc1ccc(CNCc2c(C(=O)N(C)C)nc3ccc(Cl)cn23)c(OC)c1,1,3,5,-2,1,10,i,-10,
CCOc1ccc(Nc2ncnc(N)n2)cc1,1,-13,-8,18,1,1,i,19,
CC(C)C(=O)Nc1nnc(CCc2nnc(NC(=O)C(C)C)s2)s1,4,23,-12,-6,-2,-3,i,nt,
O=Cc1cn(CCOc2ccccc2)c2ccccc12,-7,-15,-2,-6,6,-2,i,20,
O=P(CCNCc1ccco1)(c1ccccc1)c1ccccc1,8,-8,1,4,1,3,nt,nt,
COc1ccc(N2CCN(C(=O)c3cccc(NC(=O)c4ccco4)c3)CC2)cc1,-7,5,3,-12,3,1,i,23,
Cc1ccc(-c2n[nH]c(=S)n2/N=C/c2c(C)[nH]n(-c3ccccc3)c2=O)cc1,-5,-31,10,8,20,7,i,-10,
O=C(CSc1n[nH]c(-c2cccnc2)n1)Nc1ccccc1,-10,-17,-6,-9,4,-1,i,nt,
NC(=O)COc1ccc(-n2cnnn2)cc1,92*,nt,1,19,3,5,i,-16,eIF4H inh retest=53*;PABP polyA inh retest=44
CNC(=S)NNC(=O)COc1ccccc1C,-4,-26,-2,-3,-1,3,i,-51,
O=C1NC(=S)NC1=Cc1ccc(Cl)cc1Cl,nt,-20,nt,nt,-3,0,nt,-45,
Cc1cccc(NC(=O)C2CCCN(S(=O)(=O)c3cccs3)C2)c1C (stereo not given),0,-13,-3,-21,0,3,i,-1,
Cc1ccc(C(=O)O/N=C(\N)Cc2cccs2)cc1[N+](=O)[O-],5,-9,2,3,-2,-1,i,-21,
COc1ccc2[nH]c3c(c2c1)CCN1C(=O)N([C@@H](C)C(=O)NCc2ccco2)C(=O)[C@]31C,-11,-1,3,-11,2,1,i,nt,
C/C(=N\NC(=S)NC(C)C)c1ccccc1,-7,nt,-5,-5,3,-2,i,7,
C[C@H](CO)N1C[C@H](C)[C@@H](CN(C)C(=O)C2CC2)OCc2cnnn2CCCC1=O,nt,-11&0&-8,nt,nt,-2,0,nt,24,
COc1ccccc1NC(=O)CN(c1ccccc1OC)S(=O)(=O)c1ccccc1,0,-18,-3,-8,-1,-2,i,11,
CCC(C(=O)NCCC1=CCCCC1)c1ccccc1 (stereo not given),-1,7,2,4,-2,1,i,2,
COc1cc(C(=O)N2C(=O)CCC2=O)cc(OC)c1OC,-4,-23,15,-14,-4,1,i,12,
Cn1c(CCC(=O)Nc2ccccc2F)nnc1SCC(=O)Nc1ccccc1Cl,-4,-22,14,-6,1,-2,i,8,
CC(Sc1nc(N)cc(=O)[nH]1)C(=O)NNC(=O)c1cccc(Cl)c1 (stereo not given),nt,-2,nt,4,0,-2,nt,12,
COc1cccc(-c2cc(C(F)(F)F)nc(-n3cncn3)n2)c1,7,-14,13,-5,-3,-7,i,6,
Cc1ccc(Cc2c(-c3ccco3)nc3c4ccccc4ccn23)cc1,nt,-27,nt,nt,-12,-7,nt,-479,
Cc1csc(NC(=O)Cn2nc(C)c([N+](=O)[O-])c2C)n1,5,nt,2,3,4,5,i,6,
O=S(=O)(/N=C(\c1ccccc1)N1CCOCC1)c1ccc(Cl)cc1,-15,nt,-5,-12,-2,5,i,nt,
COc1ccccc1-n1c(=O)c2c3c(sc2n2c(SC)nnc12)CCC3,nt,5,nt,-6,4,3,i,nt,
CC1=NN(c2ccccc2)C(=O)C1C(=O)c1ccc(Cl)cc1 (stereo not given),1,-12,5,4,-2,1,nt,21,
COc1cccc(NC(=O)c2ccc(S(=O)(=O)N3CCCC3)cc2)c1,-2,-40,14,3,5,5,i,12,
CCCc1c(C(=O)N/N=C/c2ccco2)nnn1-c1nonc1N,-4,-9,11,-4,-4,1,i,-17,
CCn1nc(C)c(/C=N/NC(=O)c2ccc3c(c2)c(C)c(C)n3Cc2ccccc2)c1C,-2,20,1,-6,5,0,i,nt,
CC(=O)c1ccc(NC(=O)CSc2ccc3nnc(-c4ccccn4)n3n2)cc1,45,-25,16,-8,0,2,i,-11,
Cc1[nH]c2ccccc2c1C(=O)CN1CCC(C(N)=O)(N2CCCCC2)CC1,-12,-15,-4,nt,1,4,i,nt,
O=C(COc1ccc(Cl)cc1)NCCC1=CCCCC1,-3,-15,-3,6,4,2,i,nt,
CC(O)[C@H]1CNC(=O)C(=O)N1CCCCC1CCCCC1 (stereo not given in full),8,-12,1,15,2,2,i,20,
Oc1ccc(-c2csc(NCc3ccco3)n2)cc1,-7,6,10,8,6,-1,i,-35,
O=C(/C=C/c1ccccc1)c1ccoc1,4,-1,2,-5,5,4,i,nt,
CC(C)c1nc2sc3ccccc3c(=O)c2c(=O)n1Cc1ccccc1,3,nt,-13,77*,1,3,i,15,
Cc1ccc(C(=O)N/N=C2\CCSC2)cc1[N+](=O)[O-],-2,-17,-10,7,0,0,i,?,
Cc1ccccc1C(=O)N1CCc2cc(-c3nc(NC(=O)Cc4ccc5c(c4)OCO5)sc3C)ccc21,15,-9,-2,0,-17,-26,i,nt,
NC(=Nc1ccc(Cl)cc1)c1ccccc1,2,-5,30,7,-4,0,i,-2,
CCCC(=O)N1CCC1(C)C(=O)NS(=O)(=O)c1cccc(Cl)c1 (stereo not given),nt,-4,nt,nt,2,1,nt,-4,
N#Cc1cc(C(=O)Cc2ccccc2)c[nH]1,1,-4,-2,-4,4,-20,i,3,
C=CCNC(=O)c1ccc2nc(-c3ccccc3)c(-c3ccccc3)nc2c1,-6,-4,4,11,2,-6,i,5,
CC(C)n1nc(C(=O)NCCc2ccc(S(N)(=O)=O)cc2)c2ccccc2c1=O,7,3,3,-4,2,5,i,nt,
O=c1cc(-c2ccco2)oc2ccc(Cl)cc12,-8,-12,2,nt,0,1,i,nt,
COC(=O)CN(c1ccccc1C)S(C)(=O)=O,7,-3,-3,-15,1,4,i,-1,
CC(C)NC(=S)Nc1ccc2[nH]c(=O)[nH]c2c1,-5,nt,-2,-1,-7,-2,i,-13,
CC(C)(C)c1ccc(/C=N/n2cnnc2)cc1,-2,nt,5,nt,1,3,i,16,
O=C(Cc1c(C(=O)O)[nH]c2ccccc12)NC1CCCC1,-5,nt,2,-8,0,4,i,3,
COc1cccc(NC(=O)NCc2c(-c3ccccc3)noc2C)c1,1,-10,-4,-2,4,-7,i,-1,
NS(=O)(=O)c1ccc(NC(=O)C2COc3ccccc3O2)cc1 (stereo not given),2,nt,5,-4,nt,nt,i,-17,
O=C(CCc1nc2ccccc2c(=O)[nH]1)OCc1ccccc1F,-2,-9,-25,-1,0,3,i,5,
COc1cccc(C2NC(=O)NC(O)(C(F)(F)F)C2C(=O)c2cccnc2)c1OC (stereo not given),-4,-22,0,-9,-6,0,i,8,
CCc1nnc(NC(=O)C2Cc3ccccc3CN2S(=O)(=O)c2cccs2)s1 (stereo not given),11,-8,16,2,-1,3,i,nt,
O=c1ccn(CCCBr)c(=O)[nH]1,-12,6,12,16,-1,3,i,-5,
NC(=O)c1nn(CC(=O)Nc2ccc3c(c2)OCO3)cc1[N+](=O)[O-],-1,0,0,7,-2,-3,nt,6,
Cn1c(=O)cc(OCCCC(=O)NCc2ccc3c(c2)OCO3)c2ccccc21,7,-8,9,-5,5,9,i,10,
Cc1occc1-c1nnc(SCC(=O)c2cc3ccccc3oc2=O)o1,60*,-12,34,2,-13,6,i,nt,eIF4H inh retest=69*;PABP polyA inh retest=41
C[C@@H]1CN([C@@H](C)CO)C(=O)c2cccc(NC(=O)c3nc4ccccc4s3)c2O[C@@H]1CN(C)CC1CC1,nt,-5&3,nt,nt,-2,-1,nt,-8[16.7 µM],

# 10 structures from above, sorted by count of non-hydrogen atoms, rising.
SMILES,eIF4H inh,UUG fidelity,PABP polyA inh,CSC inhib,MT1-MMP act inh,MT1-MMP act inh RFP,Rce1 inhib,Env fusion inh,others
COC(=O)CN(c1ccccc1C)S(C)(=O)=O,7,-3,-3,-15,1,4,i,-1,
O=C(Cc1c(C(=O)O)[nH]c2ccccc12)NC1CCCC1,-5,nt,2,-8,0,4,i,3,
NS(=O)(=O)c1ccc(NC(=O)C2COc3ccccc3O2)cc1 (stereo not given),2,nt,5,-4,nt,nt,i,-17,
NC(=O)c1nn(CC(=O)Nc2ccc3c(c2)OCO3)cc1[N+](=O)[O-],-1,0,0,7,-2,-3,nt,6,
COc1cccc(NC(=O)NCc2c(-c3ccccc3)noc2C)c1,1,-10,-4,-2,4,-7,i,-1,
Cc1occc1-c1nnc(SCC(=O)c2cc3ccccc3oc2=O)o1,60*,-12,34,2,-13,6,i,nt,eIF4H inh retest=69*;PABP polyA inh retest=41
CCc1nnc(NC(=O)C2Cc3ccccc3CN2S(=O)(=O)c2cccs2)s1 (stereo not given),11,-8,16,2,-1,3,i,nt,
Cn1c(=O)cc(OCCCC(=O)NCc2ccc3c(c2)OCO3)c2ccccc21,7,-8,9,-5,5,9,i,10,
COc1cccc(C2NC(=O)NC(O)(C(F)(F)F)C2C(=O)c2cccnc2)c1OC (stereo not given),-4,-22,0,-9,-6,0,i,8,
C[C@@H]1CN([C@@H](C)CO)C(=O)c2cccc(NC(=O)c3nc4ccccc4s3)c2O[C@@H]1CN(C)CC1CC1,nt,-5&3,nt,nt,-2,-1,nt,-8[16.7 µM],

# The list continues.
SMILES,eIF4H inh,UUG fidelity,PABP polyA inh,CSC inhib,MT1-MMP act inh,MT1-MMP act inh RFP,Rce1 inhib,Env fusion inh,others
CCOc1ccc(C(=O)NCCNC(=O)c2ccc(OCC)cc2)cc1,4,-12,-4,-10,-2,-2,nt,-19,
O=C(N/C(=C\c1ccco1)C(=O)N1CCCC1)c1cccs1,22,-2,0,10,-2,4,i,-26,
COc1cc2c(cc1OC)C(C)N(C(=O)c1cc3c(C)cc(C)cc3[nH]1)CC2 (stereo not given),8,27,5,62,-16,-16,i,34,
CC1=Nc2ccccc2N=C(NC(=O)CSC(=S)N2CCCCC2)C1c1ccccc1 (stereo not given),-6,nt,0,7,-2,-9,nt,38,
O=C1c2ccccc2N[C@@H]2C=CC[C@@H]2N1O,nt,-6,nt,nt,2,4,nt,-10,
CC(=O)c1c(C)nc2ccc([N+](=O)[O-])cc2c1-c1ccccc1,-14,-22,9,38,0,0,i,10,
O=C(NCC1OCCCN1S(=O)(=O)c1ccc(F)cc1)C(=O)NC1CCCC1 (stereo not given),-1,-12,-15,-5,1,1,i,-9,
COc1ccccc1CNC(=O)c1n[nH]c2ccccc12,2,-19,5,0,4,-1,i,-23,
Cc1cc(C(=O)NCCc2ccc(S(N)(=O)=O)cc2)c(C)o1,-15,8,8,6,6,4,i,-9,
O=C(COC(=O)[C@@H]1CC(O)CN1S(=O)(=O)c1ccccc1[N+](=O)[O-])Nc1ccc2ccccc2c1 (stereo not given in full),-5,-8,-1,4,-1,1,i,15,

# High-throughput results (PubChem)
